High-throughput results as filed in PubChem.
PINK1 expr mod: changes PINK1 expression | AID 624263 | Potency, µM (highest dose often 76.6 µM), inactives show at the highest dose activation (PINK1 increase), most hits filed as activators | 410,000 compounds, 0.2% hits | PINK1 immunofluorescence, high-content cytometry, 24 h; active = well fitted activation curve with a large enough effect; inconclusive = small, poorly fitted or top-dose-only effect; inactive = flat fitted curve, though single readings scatter; cell line not stated here;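 note: potency is the fitted concentration of half-maximal effect; % of control where 0% means no effect; nearly all actives have a fitted effect of over 65% in size; a mitochondrial uncoupler was the plate control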
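Measures PINK1 amount and localization on or inside mitochondria by immunofluorescence. Stable cells get compounds at 5 concentrations for 24 hours before fixation and staining; CCCP controls included.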
Sfp PPTase inh: Sfp phosphopantetheinyl transferase inhibition. Q9F4F7. Biochemical Sfp PPTase activity, qHTS. Potency, µM, without a hit: max response, negative = inhibition, hits mostly inhibitors. 310,000 compounds, 3.5% hits. AID 1490; active = well fitted inhibition curve with a large enough effect; inconclusive = small, poorly fitted or top-dose-only effect, or another doubt; inactive = no such curve, though single readings can be large or run the other way;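 note: the enzyme is Sfp with the accession as filed and its product quenches rhodamine fluorescence; potency is the fitted concentration of half-maximal effect; 0% = enzyme reaction without inhibitor and -100% = no enzyme wells; top concentration of the series not given in the record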
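With Hepes-Na pH 7.6 buffer containing 10 mM MgCl2, Sfp (15 nM) modified BHQ-2-YbbR (12.5 uM) using rhodamine-CoA (5 uM). Two reads 30 minutes apart at 525/598 nm yielded each well's rate.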
D2 agonist: activates the human D2 dopamine receptor; activation, % (concentration not given with the values); 360,000 compounds, 0.084% hits; AID 624465; P14416; DiscoveRx PathHunter D2 beta-arrestin, luminescence, 90 min; 100% = 57 uM dopamine signal; in the data active = activation above about 40%; inconclusive = about 15% to 40%; inactive = below about 15%; note: the text of the record calls up to 30% inactive
Target sequence (P14416 whole entry, looked up): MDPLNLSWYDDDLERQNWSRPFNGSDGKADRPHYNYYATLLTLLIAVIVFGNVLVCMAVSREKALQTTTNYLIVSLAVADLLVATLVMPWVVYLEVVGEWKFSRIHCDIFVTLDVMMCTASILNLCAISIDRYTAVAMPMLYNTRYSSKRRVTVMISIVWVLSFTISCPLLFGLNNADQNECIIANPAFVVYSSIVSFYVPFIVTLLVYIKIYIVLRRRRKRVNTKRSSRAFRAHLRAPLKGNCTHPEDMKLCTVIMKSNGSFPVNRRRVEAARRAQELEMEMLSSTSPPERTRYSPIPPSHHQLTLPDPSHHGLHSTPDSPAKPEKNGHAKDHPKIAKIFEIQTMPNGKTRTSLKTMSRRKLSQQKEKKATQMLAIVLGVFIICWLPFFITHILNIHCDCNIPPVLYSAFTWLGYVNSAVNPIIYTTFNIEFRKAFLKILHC
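DiscoveRx PathHunter D2 beta-arrestin cells (2,100/well) attached overnight, then compound-stimulated 90 min at 37 C in HBSS/10 mM HEPES/0.1% Tween-20 buffer; beta-galactosidase complementation read by luminescence after 1 h at ambient temperature. Dopamine 57 uM final (EC100) as control.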
CtBP-E1A blk: blocks the CtBP interaction with E1A; AlphaScreen GST-E1A/His-CtBP binding, 1536-well; stronger effect = lower value; control for the full effect not named in the record; activity change, % (concentration not given with the values); 340,000 compounds, 0.49% hits; AID 651724; in the data active means activity change below about -65%; inconclusive means about -30% to -65%; inactive means above about -30%; note: % is set by controls: 0 for no effect and ±100 for the full control effect
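AlphaScreen with 125 nM GST-E1A and 125 nM His-CtBP (5X stocks) in Tris pH 8.0, 300 mM NaCl, BSA, Tween 20, TCEP. Compounds preincubated 2 h at 37 deg C, then glutathione donor/nickel acceptor beads added for 1 h at 37 deg C in dark.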
TRPV1 PAM: enhances activation of the human vanilloid receptor TRPV1; AID 540277; 320,000 compounds, 0.02% hits; Q8NER1; TRPV1-expressing cells, Fluo-8 calcium influx, capsaicin EC20 potentiation; host cell line not named in the record; control for the full effect not named in the record; potentiation, % at 8.33 µM; active means potentiation above 80%; inconclusive means 30% to 80%; inactive means below 30%; note: 0% is about no effect
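Cells expressing TRPV1 were dye-loaded with Fluo-8 and read kinetically: 10 s baseline, 3 min after compound (agonist portion), then 2 min after EC20 capsaicin (allosteric enhancer portion). Calcium-bound dye fluorescence at 480/520 nm.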
D2 potentiator: positive allosteric modulators of human D2 dopamine receptor; P14416; DiscoveRx D2 beta-arrestin cells, luminescence, 90 min; 100% = 57 uM dopamine signal; potentiation, % (no concentration beside the values); 360,000 compounds, 0.23% hits; AID 624464; active = potentiation of 50% or more; inconclusive = 30% to 50%; inactive = 30% or less;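 note: compound concentration not given in the record; tested on top of an EC20 dose of dopamine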
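D2 cells co-treated with compound plus 50 nM dopamine (EC20) for 90 min at 37 deg C to detect potentiation. Beta-arrestin recruitment was read as enzyme-fragment luminescence after 1 h at ambient temperature. Full response was set by 57 uM dopamine.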
Six1-Eya2 inh: Six1/Eya2 interaction inhibition; AlphaScreen GST-Six1/His-Eya2 binding, biochemical; stronger effect = lower value; control for the full effect not named in the record; activity change, % (test concentration not listed); 360,000 compounds, 0.56% hits; AID 651725; in the data active = activity change below about -65%; inconclusive = about -30% to -65%; inactive = above about -30%; note: % is set by controls: 0 for no effect and ±100 for the full control effect
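AlphaScreen luminescence read after one hour at 37 °C in darkness. Pin-transferred compounds met GST-Six1 and His-Eya2 protein (5X stock 250 nM/500 nM) plus glutathione donor and Ni-chelate acceptor beads (5X, 50 ug/mL).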
* hit, by the source's call; [ ] = another dose, or the depositor's remark. A portion of the library; rates above refer to the full screens.

How did Cc1cccc(-n2c(/C=C/c3ccc([N+](=O)[O-])o3)nc3ccccc3c2=O)c1 do in these assays?
PINK1 expr mod: 9.6%; Sfp PPTase inh: -22%; D2 agonist: -0.7; CtBP-E1A blk: -1; TRPV1 PAM: -3; D2 potentiator: 16; Six1-Eya2 inh: 5

How did CC(C)NC(=O)Cn1cc(C(=O)c2ccccc2F)c2ccccc21 do in these assays?
PINK1 expr mod: 1.0%; Sfp PPTase inh: 4%; D2 agonist: -1.8; CtBP-E1A blk: 0; TRPV1 PAM: 12; D2 potentiator: -7; Six1-Eya2 inh: 5

How did COc1ccccc1-n1c(/C=C/c2ccccn2)nc2ccccc2c1=O do in these assays?
PINK1 expr mod: -1.1%; Sfp PPTase inh: 5%; D2 agonist: 5.9; CtBP-E1A blk: 0; TRPV1 PAM: -4; D2 potentiator: 8; Six1-Eya2 inh: 4

How did Cc1ccc(CN2CCSc3ccc(C(=O)N4CCC5(CC4)OCCO5)cc32)cc1 do in these assays?
PINK1 expr mod: 0.2%; Sfp PPTase inh: -9%; D2 agonist: 2.0; CtBP-E1A blk: -11; TRPV1 PAM: -6; D2 potentiator: 0; Six1-Eya2 inh: -15

Results for COC(=O)C1=C(c2ccc(C(C)=O)cc2)C[C@@H]2CC[C@H]1N2C(=O)NCc1ccc2c(c1)OCO2 ?
PINK1 expr mod: -0.3%; D2 agonist: -0.7; CtBP-E1A blk: -2; TRPV1 PAM: -6; D2 potentiator: -16; Six1-Eya2 inh: -2

What do the screens show for `C=CCn1c(O)c(C(C)=NCCCN2CCOCC2)c(=O)[nH]c1=O`?
PINK1 expr mod: 1.7%[38.3 µM]; Sfp PPTase inh: 0%; D2 agonist: -1.1; CtBP-E1A blk: 3; TRPV1 PAM: 15; D2 potentiator: -14; Six1-Eya2 inh: 4

How did O=C(CCC(=O)N1CCC2(CC1)OCCO2)Nc1nnc(C(F)(F)F)s1 do in these assays?
PINK1 expr mod: -2.1%[38.3 µM]; Sfp PPTase inh: 11%; D2 agonist: 0.0; CtBP-E1A blk: 3; TRPV1 PAM: 0; D2 potentiator: -2; Six1-Eya2 inh: 5

Results for COc1ccc(OCC#CCN2CCCCCC2)cc1 ?
PINK1 expr mod: -0.8%; Sfp PPTase inh: inconclusive; D2 agonist: 1.9; CtBP-E1A blk: -1; TRPV1 PAM: 5; D2 potentiator: -18; Six1-Eya2 inh: -10

What do the screens show for `NC(Cc1ccccc1Cl)c1nn[nH]n1` (configuration not stated)?
PINK1 expr mod: 1.4%; D2 agonist: -4.0; CtBP-E1A blk: 0; D2 potentiator: -2; Six1-Eya2 inh: -19

How did CC1(C)C(C(=O)NCc2ccco2)C1(C)C do in these assays?
PINK1 expr mod: -0.4%; Sfp PPTase inh: -18%; D2 agonist: -3.6; CtBP-E1A blk: 0; TRPV1 PAM: 4; D2 potentiator: -38; Six1-Eya2 inh: 23

What do the screens show for `Cc1cc(/C=C2/C(=O)NC(=O)N(C)C2=O)c(C)n1-c1ccccc1`?
PINK1 expr mod: inconclusive; Sfp PPTase inh: 0%; D2 agonist: 0.6; CtBP-E1A blk: 8; TRPV1 PAM: 9; D2 potentiator: -1; Six1-Eya2 inh: 5

How did O=C(N/N=C/c1c(O)n(C2CC2)c(=S)[nH]c1=O)c1ccccc1O do in these assays?
PINK1 expr mod: 2.7%; Sfp PPTase inh: 17%; D2 agonist: -1.7; CtBP-E1A blk: -85*; TRPV1 PAM: -2; D2 potentiator: -4; Six1-Eya2 inh: -83*

By substructure: the entries above with an aryl methoxy group (2)
How did COc1ccccc1-n1c(/C=C/c2ccccn2)nc2ccccc2c1=O do in these assays?
PINK1 expr mod: -1.1%; Sfp PPTase inh: 5%; D2 agonist: 5.9; CtBP-E1A blk: 0; TRPV1 PAM: -4; D2 potentiator: 8; Six1-Eya2 inh: 4

Results for COc1ccc(OCC#CCN2CCCCCC2)cc1 ?
PINK1 expr mod: -0.8%; Sfp PPTase inh: inconclusive; D2 agonist: 1.9; CtBP-E1A blk: -1; TRPV1 PAM: 5; D2 potentiator: -18; Six1-Eya2 inh: -10

Later entries
How did O=C(C(=O)N1CCC2(CC1)OCCO2)c1c[nH]c2ccccc12 do in these assays?
PINK1 expr mod: -0.3%; Sfp PPTase inh: 18%; D2 agonist: -1.1; CtBP-E1A blk: 0; TRPV1 PAM: 15; D2 potentiator: -3; Six1-Eya2 inh: -10

What do the screens show for `C[C@]12CCC(=O)C=C1CC[C@@H]1C2[C@H](O)C[C@]2(C)C(=O)CCC12` (some centres not stated)?
PINK1 expr mod: -0.6%; Sfp PPTase inh: 14%; D2 agonist: 3.3; TRPV1 PAM: 15; D2 potentiator: -1; Six1-Eya2 inh: 7

Results for Cc1cccc(OP(=O)(Nc2ccc(F)cc2)Oc2cccc(C)c2)c1 ?
PINK1 expr mod: 22%; Sfp PPTase inh: 5%; D2 agonist: -2.0; CtBP-E1A blk: 0; TRPV1 PAM: 5; D2 potentiator: -23; Six1-Eya2 inh: 2

How did C=C(C)CSc1nnc([C@@H](N)Cc2c[nH]c3ccccc23)o1 do in these assays?
PINK1 expr mod: -0.5%; Sfp PPTase inh: -36%; D2 agonist: -0.1; CtBP-E1A blk: 2; TRPV1 PAM: 5; D2 potentiator: 0; Six1-Eya2 inh: -2

What do the screens show for `CC12CCC(=O)C=C1CCC1C2CCC2(C)C1CCC2(O)CC#N` (configuration not stated)?
PINK1 expr mod: 0.5%; D2 agonist: -1.5; CtBP-E1A blk: 14; D2 potentiator: -3; Six1-Eya2 inh: 3

How did Nc1ccccc1-[n+]1c(-c2ccccc2)cc(-c2ccccc2)cc1-c1ccccc1 do in these assays?
PINK1 expr mod: 0.4%; Sfp PPTase inh: -9%; D2 agonist: 1.2; CtBP-E1A blk: -7; TRPV1 PAM: 2; D2 potentiator: -4; Six1-Eya2 inh: -10

Results for COC(=O)C1=C(c2ccc(OCc3ccccc3)cc2)C[C@@H]2CC[C@H]1N2C(=O)NCc1ccc(OC)c(OC)c1 ?
PINK1 expr mod: -1.3%; D2 agonist: 4.8; CtBP-E1A blk: inconclusive; TRPV1 PAM: 1; D2 potentiator: -8; Six1-Eya2 inh: 2

Results for CCC12CN3CC(CC)(CN(C1)C3c1cccnc1)C2=O (configuration not stated) ?
PINK1 expr mod: -0.9%; Sfp PPTase inh: 11%; D2 agonist: 0.8; CtBP-E1A blk: 7; TRPV1 PAM: -4; D2 potentiator: 23; Six1-Eya2 inh: 3

Results for CN(C)c1ccc(-[n+]2c(-c3ccccc3)cc(-c3ccccc3)cc2-c2ccccc2)cc1 ?
PINK1 expr mod: inconclusive; Sfp PPTase inh: -1%; D2 agonist: -0.4; CtBP-E1A blk: inconclusive; TRPV1 PAM: -5; D2 potentiator: -16; Six1-Eya2 inh: inconclusive

How did c1ccc2c(c1)CNc1ccccc1O2 do in these assays?
PINK1 expr mod: 0.7%; Sfp PPTase inh: 9%; D2 agonist: -1.8; CtBP-E1A blk: -5; TRPV1 PAM: -2; D2 potentiator: 0; Six1-Eya2 inh: 2

What do the screens show for `CCOP(=O)(OCC)C(NC(=O)NC)C(N)=O` (configuration not stated)?
PINK1 expr mod: 4.5%; Sfp PPTase inh: 8%; D2 agonist: -6.6; CtBP-E1A blk: 5; TRPV1 PAM: 2; D2 potentiator: -6; Six1-Eya2 inh: 0

Results for CCCCCCC(N)CC(=O)O (configuration not stated) ?
PINK1 expr mod: 0.8%; Sfp PPTase inh: 19%; D2 agonist: -4.3; CtBP-E1A blk: 1; TRPV1 PAM: 18; D2 potentiator: 1; Six1-Eya2 inh: 8

How did CCCCn1nnnc1C(CCc1ccccc1)N1CCC(n2c(=O)[nH]c3ccccc32)CC1 (configuration not stated) do in these assays?
PINK1 expr mod: -1.6%; D2 agonist: 1.6; CtBP-E1A blk: -10; Six1-Eya2 inh: -17

How did C[C@]12CCC3C(CC[C@H]4C[C@H](O)CC[C@]34C)C1C[C@@H](O)[C@@H]2O (some centres not stated) do in these assays?
PINK1 expr mod: -0.6%; D2 agonist: -0.7; CtBP-E1A blk: -4; D2 potentiator: -5; Six1-Eya2 inh: 0

Results for Cc1ccc(C2=CCNCC2)cc1 ?
PINK1 expr mod: -1.2%; Sfp PPTase inh: 14%; D2 agonist: -4.2; CtBP-E1A blk: 4; TRPV1 PAM: -5; D2 potentiator: -24; Six1-Eya2 inh: 6

Results for Cc1c(OC(=O)N(C)C)ccc2c1O/C(=C\c1ccco1)C2=O ?
PINK1 expr mod: 6.9%; Sfp PPTase inh: 79µM*; D2 agonist: 1.1; CtBP-E1A blk: 4; TRPV1 PAM: -23; D2 potentiator: -5; Six1-Eya2 inh: -6

What do the screens show for `CCOC(=O)[C@]12Cc3c(cc(OC)c(OC)c3OC)[C@H]1N(CCC(=O)OC)C(=O)c1ccccc12`?
PINK1 expr mod: -1.4%; CtBP-E1A blk: -11; Six1-Eya2 inh: 3

How did Cc1ccc(C2=NCC(=O)N(CC(=O)N3CCCCC3)c3sc(C)c(C)c32)cc1 do in these assays?
PINK1 expr mod: -1.6%; Sfp PPTase inh: inconclusive; D2 agonist: -3.6; CtBP-E1A blk: 3; TRPV1 PAM: 7; D2 potentiator: -9; Six1-Eya2 inh: -1

What do the screens show for `Cc1c(C)c2ccc(OCC(=O)N3C[C@H]4C[C@@H](C3)c3cccc(=O)n3C4)cc2oc1=O`?
PINK1 expr mod: 1.2%; Sfp PPTase inh: 3%; D2 agonist: -3.0; CtBP-E1A blk: -1; TRPV1 PAM: 2; D2 potentiator: -3; Six1-Eya2 inh: -5

How did C/C=C(\C)C(=O)N[C@@H](c1ccccc1)[C@@H](O)C(=O)O[C@H]1C[C@@]2(O)[C@@H](OC(=O)c3ccccc3)C3[C@](C)(C(=O)[C@H](O)C(=C1C)C2(C)C)[C@@H](O)C[C@H]1OC[C@@]31OC(C)=O (some centres not stated) do in these assays?
PINK1 expr mod: 10%; Sfp PPTase inh: -22%; D2 agonist: -9.6; CtBP-E1A blk: -3; TRPV1 PAM: inconclusive; D2 potentiator: 1; Six1-Eya2 inh: 5

How did Clc1ccccc1C1NCc2ccccc2-n2cccc21 (configuration not stated) do in these assays?
PINK1 expr mod: 1.1%; Sfp PPTase inh: 7%; D2 agonist: -4.6; TRPV1 PAM: 2; D2 potentiator: -13; Six1-Eya2 inh: -15
